Compound activity as filed in PubChem BioAssay.
VACV Venus inh = vaccinia inhibition (Venus reporter); Potency, µM (titrated, usually from 36.5 µM), for inactives: at the highest dose activity change, negative = inhibition, hits mostly inhibitors; Vaccinia virus Venus reporter expression, fluorescence; 330,000 compounds, 0.46% hits; active means well fitted inhibition curve with a large enough effect; inconclusive means small, poorly fitted or top-dose-only effect; inactive means no such curve, though single readings can be large or run the other way; tested in A549 cells; further: nearly all actives have a fitted effect of over 30% in size; inactives centre near -10
VACV mCherry inh = vaccinia inhibition (mCherry reporter) | Potency, µM (series often up to 36.5 µM), without a hit: at the top dose activity change, negative = inhibition, hits mostly inhibitors | Vaccinia virus mCherry reporter infection, fluorescence; about a quarter of the inactives have no number | 310,000 compounds, 0.63% hits; active = well fitted inhibition curve with a large enough effect; inconclusive = small, poorly fitted or top-dose-only effect; inactive = no such curve, though single readings can be large or run the other way; tested in A549 cells; further: nearly all actives have a fitted effect of over 35% in size; inactives centre near -10
* = called active by the depositor; i = inactive; ? = inconclusive; . = no result given; [ ] = remark or other dose. On the % scale 0 is the no-effect control and ±100 the full control effect; potency means the concentration at half of the fitted maximal effect.

mol	VACV Venus inh	VACV mCherry inh
COc1ccc(CN2CCOc3c(cc(-c4ncc(C(F)(F)F)cc4Cl)cc3OCC3CCCO3)C2)c(O)c1 (centres undefined)	-16%	?
COc1ccccc1-c1c(C)nn2c(N3CCN(c4ccc(F)cc4)CC3)cc(C)nc12	?	?
CNC(=O)c1c(NC(=O)CS(=O)(=O)c2ccccc2)sc(C)c1C	-21%	-16%
COC(=O)Cc1ccc(OC(=O)c2cccc(S(=O)(=O)N3CCN(C)CC3)c2)cc1	-2%	-11%
CCOC(=O)C(NC(=O)c1ccccc1)=C1CCCCC1	-22%	.
CCCc1cc(C(=O)Nc2sc(C)c(CC)c2C#N)no1	-10%	i
Cc1cc(C)nc(NC(=O)/C=C/c2ccccc2Cl)c1	-10%	9%
CC(=O)N1CCN(C(=S)Nc2ccc(Oc3ccccc3)cc2)CC1	-19%	-6%

The list continues.
mol	VACV Venus inh	VACV mCherry inh
CC(C)(C)c1cc(NC(=O)COC(=O)c2ccc3c(=O)n4c(nc3c2)CCC4)n(-c2ccccc2)n1	-12%	-8%
O=C(CN(c1ccc(F)cc1)S(=O)(=O)c1ccccc1)NCCSC1CCCCC1	-27%	?
CCCN(CC(=O)Nc1ccccc1OC)C(=O)c1cccc(S(=O)(=O)NCc2ccccc2)c1	-18%	-23%
O=C(COC(=O)c1cc(S(=O)(=O)N2CCOCC2)ccc1Cl)Nc1ccccc1Cl	-11%	-13%
CC(=O)Nc1cccc(Oc2ccc3c(c2)C(=O)NC3=O)c1	?	-8%
N#CC1(C#N)C(c2ccccc2)OC23CCCCCC2C1(C#N)C(=N)O3 (centres undefined)	-11%	-25%
CCOc1ccc(-n2c(=O)c3c(C)c(C(=O)N(C)C)sc3n(Cc3cc(C)ccc3C)c2=O)cc1	-3%	-1%
CC1=C(C(=O)N2CCCC(N3CCN(c4cccc(C(F)(F)F)c4)CC3)C2)OCCO1 (centres undefined)	-18%	-6%

(listing goes on)
mol	VACV Venus inh	VACV mCherry inh
COc1ccc(OC)c(NC(=O)CSc2c3c(nc4ccccc24)CCCC3)c1	-20%	?
Cc1cc(NS(=O)(=O)c2ccc(OCCNS(C)(=O)=O)cc2)no1	-2%	-11%
COC(=O)c1ccc(COc2cccc3c2CCN(Cc2ccccc2)C3=O)o1	-5%	-11%
CC(C)Cn1c(N)c(C(=O)NCc2cccs2)c2nc3ccccc3nc21	?	?
CCc1ccccc1N1C(=O)/C(=C/c2ccc(N3CCN(C)CC3)o2)C(=O)NC1=S	69%[activator]	2%
Cc1cccc(N2CCn3c2nc2c3c(=O)n(C/C=C/c3ccccc3)c(=O)n2C)c1	-6%	-7%
C#CCOCCOCCOCCNc1nc(N2CCN(C(=O)[C@H](CCC(=O)O)n3cc(C(N)CO)nn3)CC2)nc(N2CCN(C(=O)[C@H](CCC(=O)O)n3cc(C(N)[C@H](C)CC)nn3)CC2)n1 (some centres undefined)	0%	i
O=C(CN(C(=O)c1cc2c(s1)CCC2)C1CCCC1)NCc1cccs1	-21%	-27%

(listing goes on)
mol	VACV Venus inh	VACV mCherry inh
C/C(=N\NC(=O)c1cc(-c2cccnc2)nc2ccccc12)c1ccccc1O	?	?
CC1CCCCN1C(=O)C1CCN(S(=O)(=O)c2ccc(-n3cnnn3)cc2)CC1 (centres undefined)	-15%	i
COc1ccc2c(c1)[C@H]1[C@H](CO2)[C@H](c2ccccc2)[C@]2(C)C(=O)N(CC3CCCO3)CC(=O)N12 (some centres undefined)	-11%	i
O=C(NCc1ccco1)c1ccc(N2CCOCC2)c([N+](=O)[O-])c1	2%	i
CCOCN(C(=O)Cn1c(COC)nc2ccccc21)c1c(C)cccc1CC	1%	-7%
CC(C)Oc1ccc(S(=O)(=O)N2CCOCC2)cc1NC(=O)CCCSc1ccccc1	-10%	-20%
CCOC(=O)N1CCC(NC(=O)C2CCCN(S(=O)(=O)c3ccc4c(c3)oc(=O)n4C)C2)CC1 (centres undefined)	-7%	-11%
CC1=NN(C(=O)c2ccccc2-n2cccc2)C(O)(C(F)(F)F)C1 (centres undefined)	-9%	-13%

Additional results follow.
mol	VACV Venus inh	VACV mCherry inh
CC(C)(C)OC(=O)N1CCC(Cc2cc(-c3ccc(Cl)cc3)no2)(C(=O)O)CC1	-12%	i
Cc1ccc(NC(=O)CCC(=O)NNS(=O)(=O)c2ccccc2)c(C)c1	-20%	-25%
Cc1ccc(S(=O)(=O)c2nnn3c2nc(N2CCN(c4ccccc4F)CC2)c2ccccc23)cc1C	-6%	-16%
CN(c1ccccc1)c1nccc(=O)[nH]1	-7%	-8%
COc1ccc(-c2csc(C)n2)cc1Br	-12%	i
CCCCNC(=O)CCCn1c(=O)[nH]c2ccc(Br)cc2c1=O	-12%	-11%
CC1CCC(NC(=O)c2ccc(NC3=NC4CS(=O)(=O)CC4S3)cc2)CC1 (centres undefined)	-19%[7.34 µM]	-3%[7.34 µM]
COc1cccc(NC(=O)C2CCCN(S(=O)(=O)c3cccc4cccnc34)C2)c1 (centres undefined)	-15%	-15%

A few values from above:
Under VACV mCherry inh, CC1CCC(NC(=O)c2ccc(NC3=NC4CS(=O)(=O)CC4S3)cc2)CC1 (centres undefined) has -3%[7.34 µM]
Under VACV Venus inh, CC(C)(C)OC(=O)N1CCC(Cc2cc(-c3ccc(Cl)cc3)no2)(C(=O)O)CC1 has -12%
Under VACV Venus inh, COc1ccc(-c2csc(C)n2)cc1Br has -12%

Continuation:
mol	VACV Venus inh	VACV mCherry inh
CCOc1ccccc1-c1nnc(CS(=O)(=O)c2ccccc2)o1	-14%	13%
Cc1cccc(C)c1NC(=O)C1c2cccc[n+]2CC(=O)N1Cc1cccs1 (centres undefined)	-7%	i
CCCC(=O)NC(C)c1nc(-c2ccc(C)cc2)no1 (centres undefined)	-8%	i
CCCn1ccc2c(OCC(=O)NCc3ccc(F)cc3)cccc2c1=O	0%	-13%
CC(C)Cc1nn2c(=O)cc(COc3ccc(NC(=O)c4ccco4)cc3)nc2s1	-27%[7.34 µM]	-3%[7.34 µM]
O=C(NCCc1ccccc1)C1CCC(CNc2nc(=S)[nH]c3ccccc23)CC1 (centres undefined)	-1%	3%
O=C(O)CCNS(=O)(=O)c1ccc2c(c1)Cc1ccccc1-2	-1%	.
COC(=O)c1ccc(C(=O)OC)c(NC(=S)N2CCC(C(N)=O)CC2)c1	-2%	-3%

Additional results
mol	VACV Venus inh	VACV mCherry inh
CCOC(=O)c1cccc(NC(=O)Nc2c(C)n(C)n(-c3ccccc3)c2=O)c1	-5%	-13%
CC(=O)OCC1(O)CC23CCC4c5ccoc5CCC4(C)C2CCC1C3 (centres undefined)	-16%	-4%
CC(=O)c1cccc(NS(C)(=O)=O)c1	-9%	i
Cc1ccc(S(=O)(=O)Nc2ccc(-c3nnc(SCc4ccccc4Cl)o3)cc2)cc1	-20%	-24%
Cn1cc(CCC(=O)N2CCCC(C(=O)c3ccc(C(C)(C)C)cc3)C2)cn1 (centres undefined)	-3%	-1%
CC(=O)c1c(C)[nH]c(C(=O)Nc2cccc(S(=O)(=O)N(C)C)c2)c1C	-10%	-11%
CC1(C(=O)NCc2ccccc2)CSCC(=O)N1CC(F)(F)F (centres undefined)	4%	-30%
CCCCNC(=O)C1(C)CCC(=O)N1CCc1c[nH]c2ccccc12 (centres undefined)	1%	17%

Further compounds follow:
mol	VACV Venus inh	VACV mCherry inh
O=C(O)CCC(=O)CCC(=O)c1ccc(Cl)cc1	-3%	-12%
COc1ccccc1CNC(=O)CS(=O)(=O)Cc1ccccc1	-9%	i
O=C(NNC(=O)C1CC1)c1cc(=O)[nH]c2ccccc12	-8%	-11%
CCCCOc1ccc(C(=O)Nc2ccc3oc(-c4cccnc4)nc3c2)cc1	-25%	?
CC(C)Cn1c(SCC(=O)N2CC(=O)Nc3ccccc32)nc2ccccc21	-18%	-5%
Cc1ccc(NC(=O)NCCc2ccc(S(N)(=O)=O)cc2)cc1	-23%	.
Oc1ccccc1Nc1nc(-c2ccccc2)c2cc(Cl)ccc2n1	-9%	-19%
Cc1cc(C)cc(NC(=O)c2cc3c(=O)n4ccccc4nc3s2)c1	-13%	-1%

Continued:
mol	VACV Venus inh	VACV mCherry inh
c1ccc2c(c1)ncn2CCN1CCCCC1	8%	-3%
C[C@]12CCC(=O)C[C@@H]1CC[C@@H]1[C@@H]2CC[C@]2(C)[C@@H](O)CC[C@@H]12	-14%	i
CC/C(=N/N=C(\CC)c1ccccc1)c1ccccc1	-3%	i
COc1cccc(N2CCN(C(=O)C3CCN(S(=O)(=O)c4cccs4)CC3)CC2)c1	-7%	-7%
CO[C@H]1CC[C@@]2(C)[C@@H](CC[C@@H]3[C@@H]2CC[C@@]2(C)[C@H]3C[C@H](C(=O)O)O[C@]23CCCO3)C1	-6%	-6%
CC1=C(C(=O)Nc2cccc(C(=O)NC(C)c3ccccc3)c2)SCCO1 (centres undefined)	-18%	-5%
CN(C)c1nc(N)nc(CSc2nc3c(c(=O)n(C)c(=O)n3C)n2Cc2ccccc2F)n1	-1%	2%
Cc1ccc(C(=O)N2CCN(CCc3ccncc3)CC2)cc1	-5%	-9%

(list continues)
mol	VACV Venus inh	VACV mCherry inh
O=C(CN1CCCCC1)NC(=O)Nc1ccccc1F	3%	4%
CCOCCCNC(=O)C(NC(=O)c1ccc2c(c1)OCO2)c1ccc(Cl)cc1 (centres undefined)	1%	-14%
C=CCN(c1ccc(C(=O)NCCN2CCOCC2)cc1)S(C)(=O)=O	4%	-11%
Cc1cc(/C=C(\C#N)C(=O)OCC#N)c(C)n1CC(C)C	-9%	-5%
Cc1ccnc(NC(=O)c2c(C)oc3ncn(CC(C)C)c(=O)c23)c1	-10%	-13%
Cc1ccc(S(=O)(=O)CC(=O)N(CCCN(C)C)c2nc3ccc(C)cc3s2)cc1	-17%	-22%
O=C(c1ccc(F)c(F)c1)N1CCC2(CC1)NCCc1[nH]cnc12	-9%	i
CCN(CC(=O)Nc1c(F)cccc1F)C(=O)C1CCN(S(=O)(=O)c2ccc(C)c(C)c2)CC1	-5%	2%

Continuation.
mol	VACV Venus inh	VACV mCherry inh
CCN(CC)CCN(Cc1cc2cc(C)ccc2[nH]c1=O)C(=O)Nc1ccccc1OC	-13%	.
CN1C(=O)C(N=Nc2ccc([N+](=O)[O-])cc2)SC1=S (centres undefined)	-5%	-12%
COc1ccccc1CNC(=O)CN(c1ccc(C)cc1)S(=O)(=O)c1c(C)noc1C	9%	-1%
CC(C)(C)c1cc(C(=O)O)n[nH]1	10%	6%
COC(=O)c1c[nH]n2c(=O)c(C(C)C)c(C)nc12	-12%	i
Cc1ccc2[nH]c(=O)c(CN(CCCN(C)C)C(=O)Nc3ccc(F)cc3)cc2c1	-10%	i
CCCc1cc(=O)[nH]c(SCc2cc(=O)oc3cc(C)c(C(C)C)cc23)n1	-8%	0%
N#C/C(C(N)=O)=c1/ccc2c(c1)N1C3=C(CCCC3)CC3CCCCC31N=2 (centres undefined)	-11%	i

More compounds
mol	VACV Venus inh	VACV mCherry inh
Cc1cccc(/C=C/c2onc(C)c2S(=O)(=O)N2CCC(C(=O)N3CCCCCC3)CC2)c1	-25%	-6%
CNS(=O)(=O)c1cc(OCC(N)=O)c(C)cc1Cl	-8%	-12%
CCCCOc1ccc(C)cc1CN(CCO)CCO	-8%	i
O=C(COC(=O)Cc1ccc(Cl)cc1Cl)NCc1ccccc1	-7%	i
Cc1c(NC(=S)N/N=C/c2ccc(N(C)C)cc2)c(=O)n(-c2ccccc2)n1C	-19%	-7%
Cc1c(N=NC2=C(O)CC(C)(C)CC2=O)cc2c(c1[N+](=O)[O-])C(C)(C)CC2(C)C	-3%	i
N#CC(c1ccc(=O)[nH]n1)c1ccc(Cl)cc1Cl (centres undefined)	-18%	-7%
Cc1ccc2nc(NC(=O)C3CC3C)sc2c1 (centres undefined)	-27%	-27%

Going on with the list.
mol	VACV Venus inh	VACV mCherry inh
COc1cc(-n2c(=O)c3ccccc3n(CC(=O)OCc3ccccc3)c2=O)cc(OC)c1OC	-15%	i
COc1ccc(CCNC(=O)CCc2c(C)nc3cc(-c4ccccc4)nn3c2C)cc1OC	-11%	-18%
CCOC(=O)C(=N/O)/C(C)=N/NC(C)=O	6%	i
Cc1ccc(CNc2cc(C)nc3nc(-c4ccc(C)cc4)nn23)cc1	50%[activator]	-1%
O=C(/C(=N/O)n1cncn1)c1ccccc1Cl	-14%	-26%
COc1ccc(N(C(=O)c2snc(C(N)=O)c2N)C(C(=O)NC2CCCC2)c2ccco2)c(OC)c1 (centres undefined)	-10%	-2%
Nc1nnnn1NCc1cccc(OCc2ccccc2)c1	-11%	-18%

An excerpt from above in order of number of heavy atoms, highest first:
mol	VACV Venus inh	VACV mCherry inh
COc1ccc(N(C(=O)c2snc(C(N)=O)c2N)C(C(=O)NC2CCCC2)c2ccco2)c(OC)c1 (centres undefined)	-10%	-2%
COc1ccc(CCNC(=O)CCc2c(C)nc3cc(-c4ccccc4)nn3c2C)cc1OC	-11%	-18%
Cc1ccc(CNc2cc(C)nc3nc(-c4ccc(C)cc4)nn23)cc1	50%[activator]	-1%
O=C(/C(=N/O)n1cncn1)c1ccccc1Cl	-14%	-26%
CCOC(=O)C(=N/O)/C(C)=N/NC(C)=O	6%	i

Of the compounds above, these have a tert-butyl group:
mol	VACV Venus inh	VACV mCherry inh
CC(C)(C)c1cc(NC(=O)COC(=O)c2ccc3c(=O)n4c(nc3c2)CCC4)n(-c2ccccc2)n1	-12%	-8%
CC(C)(C)OC(=O)N1CCC(Cc2cc(-c3ccc(Cl)cc3)no2)(C(=O)O)CC1	-12%	i
Cn1cc(CCC(=O)N2CCCC(C(=O)c3ccc(C(C)(C)C)cc3)C2)cn1 (centres undefined)	-3%	-1%
CC(C)(C)c1cc(C(=O)O)n[nH]1	10%	6%
